RGS16-Gao: modulates binding between human RGS16 and Galphao; O15492+P09471; bead-based flow cytometry RGS16-Galphao binding, fluorescence; actives lie on both sides; binding response (% of control), % at 10 µM; 220,000 tested, 0.38% active; AID 1441;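 active = below 25% or above 175%, edge rows of some plates excepted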;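 also: Galphao activated by GDP with aluminum fluoride before binding; 100% = wells without compound and 0% = beads without RGS; some results beyond the cut were filed as inactive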
PKD1 kinase inh: inhibitors of human PKD1 kinase; Q15139; PKD1 kinase fluorescence polarization assay; inhibition, %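 (about 10 µM by stock and volumes)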; 200,000 tested, 0.056% active;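 active = inhibition of 50% or more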;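 also: controls were vehicle for no effect and a reference inhibitor for full effect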
Target sequence (Q15139 whole entry, looked up): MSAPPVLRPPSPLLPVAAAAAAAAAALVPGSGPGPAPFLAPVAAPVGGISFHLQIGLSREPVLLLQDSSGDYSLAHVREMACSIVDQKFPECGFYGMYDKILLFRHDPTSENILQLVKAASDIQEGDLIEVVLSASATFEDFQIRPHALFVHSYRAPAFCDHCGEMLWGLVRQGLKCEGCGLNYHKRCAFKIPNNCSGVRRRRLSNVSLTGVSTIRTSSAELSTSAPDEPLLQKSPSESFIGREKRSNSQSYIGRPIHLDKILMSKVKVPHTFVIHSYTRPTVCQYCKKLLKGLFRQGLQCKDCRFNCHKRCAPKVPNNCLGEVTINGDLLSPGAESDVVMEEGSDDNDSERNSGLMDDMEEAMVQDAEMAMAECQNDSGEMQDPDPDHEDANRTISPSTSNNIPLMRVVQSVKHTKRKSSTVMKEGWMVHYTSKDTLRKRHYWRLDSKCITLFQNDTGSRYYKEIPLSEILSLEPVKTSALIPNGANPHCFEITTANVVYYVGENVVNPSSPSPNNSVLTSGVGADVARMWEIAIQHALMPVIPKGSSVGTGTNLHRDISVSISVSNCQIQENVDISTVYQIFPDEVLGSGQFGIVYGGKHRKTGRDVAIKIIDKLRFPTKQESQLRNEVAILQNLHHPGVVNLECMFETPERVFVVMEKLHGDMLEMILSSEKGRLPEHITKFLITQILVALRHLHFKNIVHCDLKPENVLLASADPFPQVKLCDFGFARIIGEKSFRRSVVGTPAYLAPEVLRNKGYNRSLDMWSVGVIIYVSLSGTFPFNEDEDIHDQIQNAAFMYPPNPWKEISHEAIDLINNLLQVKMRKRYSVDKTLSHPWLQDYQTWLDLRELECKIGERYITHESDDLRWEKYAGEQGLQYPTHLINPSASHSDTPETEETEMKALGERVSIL
GALR2 agonist: activates the human galanin receptor 2; O43603; GALR2-expressing cells, agonist activation read-out; activation, %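 (tested at 5 µM)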; 140,000 tested, 0.48% active;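 active = above mean plus 3 SD of all compounds, about 5% in these data, not always enough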;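 also: 0% = vehicle buffer wells and 100% = reference agonist at full effect; tested in CHO reporter cells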
INS promoter inh: TRM-6 insulin promoter activity inhibition | 130,000 tested, 0.9% active | inhibition, % at 2 µM | TRM-6 cells (human fetal islet line), insulin promoter-eGFP reporter, imaging; reporter expression induced with tamoxifen | AID 1273;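 active = inhibition above the mean plus 3 SD, with well images judged a real hit on visual review, cut at about 60% in these data, passing the limit was not always enough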
HSV augment: HSV replication enhancement | maximum fold increase | 220,000 tested, 0.005% active | HSV replication augmentation in cells, fold increase;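 active = peak rise of 1.5-fold or more in the series; tested in PC3 cells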;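 also: first round at 10 µM; read as green reporter fluorescence; hits show the peak of a series up to 25 µM; 1 = signal of infected wells without compound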
INS promoter inh cell count: further read-out of INS promoter inh, marked with its call; normalized cell count, %; measured here: cell count, toxicity; reference of the scale not given here;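 cells exposed to compound for 48 h; stained nuclei by imaging scaled within each plate; lower means fewer cells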
HSV augment primary fold: recorded beside HSV augment, whose call it bears; fold increase; compound at 10 µM; measured here: primary screen fold increase 10 uM; tested in PC3 cells;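 GFP signal in the first replicate; 1 = infected wells without compound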
An asterisk follows results filed as active.

`C=CCn1c(COc2ccccc2)nnc1SCC(=O)Nc1ccc(S(N)(=O)=O)cc1` gave RGS16-Gao 108.1, PKD1 kinase inh 8.3, GALR2 agonist -4.6, INS promoter inh 42.9, HSV augment inactive, INS promoter inh cell count 64.3 and HSV augment primary fold 1.03.
Screening N#CN(Cc1ccccc1)Cc1ccccc1 returned RGS16-Gao 101.4, HSV augment inactive and HSV augment primary fold 0.91.
`CC(C)C[C@H](NC(=O)c1nc[nH]c1C(=O)N1CCN(C(=O)OC(C)(C)C)CC1)C(=O)OC(C)(C)C` gave RGS16-Gao 98.0, PKD1 kinase inh 12.8, HSV augment inactive and HSV augment primary fold 0.81.
`COc1ccc(/C=C(\NC(=O)c2ccc(OCC(C)C)cc2)C(=O)OCc2ccco2)cc1` gave RGS16-Gao 110.5, PKD1 kinase inh -9.4, GALR2 agonist -1.8, HSV augment inactive and HSV augment primary fold 0.98.
For COc1cccc(C(=O)NCc2nnc(SCC(=O)Nc3nccs3)n2-c2cccc(C)c2)c1 the results were RGS16-Gao 108.1, PKD1 kinase inh -1.3, GALR2 agonist -2.4, INS promoter inh 43.8, HSV augment inactive, INS promoter inh cell count 80.5 and HSV augment primary fold 0.89.
Screening O=C(O)CCc1ccc(-c2cccs2)n1NC(=O)c1cccs1 returned RGS16-Gao 97.4, PKD1 kinase inh -7.5, INS promoter inh inactive, HSV augment inactive, INS promoter inh cell count 100.4 and HSV augment primary fold 1.05.
For CCOC(=O)c1ccc(N2C(=O)c3n[nH]c(C)c3C2c2cccnc2)cc1 (configuration not stated) the results were RGS16-Gao 98.4, PKD1 kinase inh -5.7, GALR2 agonist 0.4, INS promoter inh -18.2, HSV augment inactive, INS promoter inh cell count 78.8 and HSV augment primary fold 0.95.
For O=C(/C=C/c1ccccc1)NCC(=O)N/N=C/c1ccccc1[N+](=O)[O-] the results were RGS16-Gao 84.2, PKD1 kinase inh -9.3, INS promoter inh -20.0, HSV augment inactive, INS promoter inh cell count 109.2 and HSV augment primary fold 0.97.
O=C(CN1CCN(c2ccccn2)CC1)Nc1ccc(Cl)c(C(F)(F)F)c1 was read as RGS16-Gao 97.1, PKD1 kinase inh -17.4, GALR2 agonist -2.9, INS promoter inh 9.7, HSV augment inactive, INS promoter inh cell count 106.1 and HSV augment primary fold 0.96.
For COc1ccc(N(Cc2cc3cc(OC)ccc3[nH]c2=O)C(=O)c2cccnc2)cc1 the results were RGS16-Gao 105.4, PKD1 kinase inh -2.7, GALR2 agonist 0.2, INS promoter inh 0.0, HSV augment inactive, INS promoter inh cell count 153.9 and HSV augment primary fold 1.02.
For CC(C)CC(=O)Nc1ccccc1-c1nnn(CC(=O)N2CCc3ccccc3C2)n1 the results were RGS16-Gao 91.4, PKD1 kinase inh 0.5, GALR2 agonist -0.1, INS promoter inh -2.7, HSV augment inactive, INS promoter inh cell count 136.2 and HSV augment primary fold 0.95.
COc1ccc2nc(SCC(=O)N3CCCCCC3)c(C#N)cc2c1 was read as RGS16-Gao 103.4, PKD1 kinase inh -4.9, GALR2 agonist 0.9, HSV augment inactive and HSV augment primary fold 0.98.
`CCN(CCNC(=O)c1ccc2nc(-c3ccccc3NC(C)=O)c(=O)[nH]c2c1)c1ccccc1` gave RGS16-Gao 98.9, PKD1 kinase inh -12.5, GALR2 agonist -0.8, HSV augment inactive and HSV augment primary fold 0.75.
O=C1CCCN1CCCNC(=S)Nc1ccc(Cl)cc1Cl was read as RGS16-Gao 111.3, PKD1 kinase inh -3.8, INS promoter inh 18.2, HSV augment inactive, INS promoter inh cell count 129.3 and HSV augment primary fold 0.91.
`O=P(CCO)(c1ccccc1)c1ccccc1` gave RGS16-Gao 99.6, PKD1 kinase inh -3.0, HSV augment inactive and HSV augment primary fold 0.9.
For O=C(CSc1nc2ccccc2s1)NC1CCS(=O)(=O)C1 (configuration not stated) the results were RGS16-Gao 104.2, PKD1 kinase inh 5.0, GALR2 agonist -2.7, INS promoter inh -13.5, HSV augment inactive, INS promoter inh cell count 102.4 and HSV augment primary fold 0.79.
CCc1ccccc1N(C(C)=O)c1nc(CN=C=S)cs1 was read as RGS16-Gao 86.0, PKD1 kinase inh -0.7, INS promoter inh -60.0, HSV augment inactive, INS promoter inh cell count 103.2 and HSV augment primary fold 0.88.
Screening CCS(=O)(=O)N1CCC(C(=O)N2CCOCC2)CC1 returned RGS16-Gao 96.7, PKD1 kinase inh -0.8, GALR2 agonist -1.4, INS promoter inh 43.3, HSV augment inactive, INS promoter inh cell count 125.5 and HSV augment primary fold 0.94.
COc1cc2nc(CN(C)Cc3nc4ccccc4c(=O)[nH]3)[nH]c(=O)c2cc1OC was read as RGS16-Gao 98.0, PKD1 kinase inh 3.7, GALR2 agonist -3.0, INS promoter inh 14.3, HSV augment inactive, INS promoter inh cell count 92.4 and HSV augment primary fold 0.89.
`COc1ccc(-c2nnc(SCC(=O)N3CCCC3)o2)cc1OC` gave PKD1 kinase inh -0.8, GALR2 agonist -1.8, INS promoter inh 38.9, HSV augment inactive, INS promoter inh cell count 124.1 and HSV augment primary fold 1.05.
`CC(C)C(=O)Nc1ccnc(-c2cccnc2)n1` gave RGS16-Gao 96.7, PKD1 kinase inh 2.7, GALR2 agonist -1.5, INS promoter inh -36.7, HSV augment inactive, INS promoter inh cell count 81.7 and HSV augment primary fold 1.08.
Cc1cc(=O)[nH]c(SCn2nnc3ccccc3c2=O)n1 was read as RGS16-Gao 34.4, PKD1 kinase inh -5.7, GALR2 agonist -0.8, INS promoter inh -19.3, HSV augment inactive, INS promoter inh cell count 112.6 and HSV augment primary fold 0.84.
Screening COC(=O)C1C(c2ccccc2)C(C(=O)OCc2ccco2)C1c1ccccc1 (configuration not stated) returned RGS16-Gao 100.6, PKD1 kinase inh -7.1, GALR2 agonist -0.1, INS promoter inh -5.6, HSV augment inactive, INS promoter inh cell count 113.4 and HSV augment primary fold 0.92.
`Cc1ccc2c(c1)N(CC(=O)N(Cc1ccccn1)Cc1ccco1)C(=O)C(C(C)C)O2` (configuration not stated) gave RGS16-Gao 97.6, PKD1 kinase inh -6.0, GALR2 agonist -1.5, INS promoter inh -118.8, HSV augment inactive, INS promoter inh cell count 136.7 and HSV augment primary fold 0.88.
Cc1cc2ccccc2c(=O)n1CC(=O)NCC(=O)N1CCCC1 was read as RGS16-Gao 92.2, PKD1 kinase inh 3.1, GALR2 agonist -0.8, INS promoter inh 0.0, HSV augment inactive, INS promoter inh cell count 130.4 and HSV augment primary fold 0.96.
O=C(OCc1nnc(-c2ccccc2)o1)C1CCN(S(=O)(=O)c2cccs2)CC1 was read as RGS16-Gao 98.8, PKD1 kinase inh 8.0, GALR2 agonist -1.4, INS promoter inh -35.7, HSV augment inactive, INS promoter inh cell count 99.7 and HSV augment primary fold 1.
O=C(NC1CCCCCC1)c1cccc(N2CCCC2=O)c1 was read as RGS16-Gao 90.7, PKD1 kinase inh -7.8, GALR2 agonist -1.4, INS promoter inh 45.5, HSV augment inactive, INS promoter inh cell count 34.0 and HSV augment primary fold 0.93.
`O=C(c1ccco1)N1CCN=C1SCc1c(F)cccc1Cl` gave RGS16-Gao 108.3, PKD1 kinase inh 14.3, GALR2 agonist -0.2, HSV augment inactive and HSV augment primary fold 0.94.
For CC1=C(C(=O)OCc2ccccc2)C(c2cccc([N+](=O)[O-])c2)NC(=O)N1CCCCCC(=O)O (configuration not stated) the results were RGS16-Gao 102.7, PKD1 kinase inh -0.8, GALR2 agonist -0.3, INS promoter inh -66.7, HSV augment inactive, INS promoter inh cell count 115.1 and HSV augment primary fold 0.91.
For O=c1cccc(-c2ccccc2)[nH]1 the results were RGS16-Gao 99.7, PKD1 kinase inh -5.2, GALR2 agonist -1.6, INS promoter inh -35.7, HSV augment inactive, INS promoter inh cell count 87.6 and HSV augment primary fold 0.98.
For CS(=O)(=O)N(Cc1ccccc1)c1ccc(C(=O)NCC2CCCO2)cc1 (configuration not stated) the results were RGS16-Gao 112.2, PKD1 kinase inh -1.7, GALR2 agonist -1.4, INS promoter inh 3.7, HSV augment inactive, INS promoter inh cell count 53.5 and HSV augment primary fold 0.99.
CCCC1(C(=O)OCC)NC(c2ccc(N(C)C)cc2)C2C(=O)N(c3ccc(OCC)cc3)C(=O)C21 (configuration not stated) was read as RGS16-Gao 96.0, PKD1 kinase inh 6.3, GALR2 agonist -1.0, HSV augment inactive and HSV augment primary fold 0.82.
`O=C(CN1CCC(O)(c2cccc(F)c2)CC1)NCCc1c[nH]c2ccccc12` gave RGS16-Gao 100.4, HSV augment inactive and HSV augment primary fold 0.81.
`Oc1ccc(C=Nc2cccc3ncccc23)c(O)c1` gave RGS16-Gao 101.2, PKD1 kinase inh -0.2, GALR2 agonist -1.2, INS promoter inh -85.7, HSV augment inactive, INS promoter inh cell count 89.2 and HSV augment primary fold 1.17.
CCOC(=O)c1cc2n(c1C)-c1ccccc1C2=O was read as RGS16-Gao 102.7, PKD1 kinase inh -6.5, GALR2 agonist -0.8, HSV augment inactive and HSV augment primary fold 0.65.
For O=C(O)c1cc(-c2ccc(O)cc2)nc2ccccc12 the results were RGS16-Gao 102.9, PKD1 kinase inh -2.5 and GALR2 agonist -1.5.
CCCn1c2c(c(O)c(C(=O)Nc3ncccc3C)c1=O)CCCC2 was read as RGS16-Gao 101.2, PKD1 kinase inh -2.0, GALR2 agonist -1.9, HSV augment inactive and HSV augment primary fold 1.13.
For CC(C)CC1NC(=O)N(CCCCN2C(=O)c3ccccc3C2=O)C1=O (configuration not stated) the results were RGS16-Gao 91.0, PKD1 kinase inh 2.4, HSV augment inactive and HSV augment primary fold 1.04.
For O=C(/C=C/c1ccccc1O)c1ccc(Cl)cc1 the results were RGS16-Gao 98.3, PKD1 kinase inh -2.1, HSV augment inactive and HSV augment primary fold 0.84.
`COc1ccc(C2=NN(C(=O)c3cccs3)C(c3ccccc3OC)C2)cc1OC` (configuration not stated) gave RGS16-Gao 101.2, PKD1 kinase inh -1.6, HSV augment inactive and HSV augment primary fold 0.86.
O=C(NC1CC1)C1=C[C@@H](C2CCCCC2)C[C@@H](OCCCCO)O1 was read as RGS16-Gao 101.2, PKD1 kinase inh 1.7, HSV augment inactive and HSV augment primary fold 1.07.
For Cc1nc2ccccc2c(=O)n1CCCn1ccnc1 the results were RGS16-Gao 98.8, PKD1 kinase inh 0.0, GALR2 agonist -1.5, INS promoter inh 52.4, HSV augment inactive, INS promoter inh cell count 158.0 and HSV augment primary fold 0.957.
`CNC(=O)COC(=O)c1cc2c(C)nn(-c3ccc(F)cc3)c2s1` gave RGS16-Gao 112.3, PKD1 kinase inh -0.8, GALR2 agonist -3.6, INS promoter inh 0.0, HSV augment inactive, INS promoter inh cell count 149.6 and HSV augment primary fold 1.13.
`COc1ccccc1-n1c(SCC(=O)NC2CCCC2)nc2cccnc21` gave RGS16-Gao 101.0, PKD1 kinase inh -6.4, GALR2 agonist -1.5, HSV augment inactive and HSV augment primary fold 1.06.
For COc1ccc(S(=O)(=O)N2CCCC(C(=O)NCc3ccc4c(c3)OCO4)C2)cc1 (configuration not stated) the results were RGS16-Gao 107.0, HSV augment inactive and HSV augment primary fold 1.14.
`COc1ccc(/C=N/Nc2nnc(Cc3ccccc3)c(=O)[nH]2)cc1OC` gave RGS16-Gao 98.3, HSV augment inactive and HSV augment primary fold 1.14.
`COc1ccc(C(CC(=O)N2CCN(c3ccccc3)CC2)c2c(O)cc(OC)cc2OC)cc1` (configuration not stated) gave RGS16-Gao 99.5, HSV augment inactive and HSV augment primary fold 1.03.
`CCCNC(=O)C(=O)NCc1ccccn1` gave RGS16-Gao 100.5, PKD1 kinase inh 4.4, INS promoter inh 15.0, HSV augment inactive, INS promoter inh cell count 91.7 and HSV augment primary fold 1.09.
